Bioassay records deposited in PubChem by National Center for Advancing Translational Sciences (NCATS).
StopGo reporter: FMDV 2A StopGo reporter, luciferase signal; human cells with a luciferase reporter of 2A StopGo recoding; control for the full effect not named in the record; Potency, µM (top dose mostly 57.9 µM), without a hit: at the highest dose signal change, negative = less light; 1.2% of 410,000 active; active = well fitted falling curve with a large enough effect; inconclusive = small, poorly fitted or top-dose-only effect; inactive = no such curve, though single readings can be large or run the other way; tested in HEK293T cells; note: % is set by controls: 0 for no effect and ±100 for the full control effect; nearly all actives have a fitted effect of over 45% in size; luciferase light after 4 h
RE007 growth inh: less growth of the S. pombe RE007 Vpr strain; S. pombe RE007 Vpr strain, BacTiter-Glo ATP luminescence, 24 h; control for the full effect not named in the record; Potency, µM (series often up to 92.2 µM), inactives show at the highest dose activity change, negative = less growth; 0.21% of 360,000 active; AID 651644; active = well fitted falling curve with a large enough effect; inconclusive = small, poorly fitted or top-dose-only effect; inactive = no such curve, though single readings can be large or run the other way;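 note: % is set by controls: 0 for no effect and ±100 for the full control effect; nearly all actives have a fitted effect of over 50% in size; the assay follows cell death caused by Vpr and the record does not say whether a fall means rescue or toxicity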
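Fission yeast strain RE007, carrying one chromosomally integrated HIV-1 vpr copy, was seeded at OD 0.01 in PMG+AL medium with 23 nL pinned compound. After 24 h at 30 °C and 99% humidity, viability was read by BacTiter-Glo luminescence.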
LASV entry inh: Lassa virus entry inhibition. Potency, µM (top dose mostly 37.9 µM), for the others: at the highest dose activity change, negative = inhibition, hits mostly inhibitors. 1.2% of 300,000 active. Lassa virus pseudotype entry inhibition, cell reporter; control for the full effect not named in the record; active means well fitted inhibition curve with a large enough effect; inconclusive means small, poorly fitted or top-dose-only effect, or effect the other way; inactive means flat fitted curve, though single readings scatter; tested in HEK293 cells; note: % is set by controls: 0 for no effect and ±100 for the full control effect; nearly all actives have a fitted effect of over 50% in size; luciferase read-out
Cruzain Triton: inhibitors of Trypanosoma cruzi cruzain with detergent | P25779 | Potency, µM, inactives show max response, negative = inhibition, usual class: inhibitors | AID 1478 | 0.43% of 200,000 active | purified cruzain, Z-FR-AMC fluorescence, 0.01% Triton;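 note: plate controls were neutral wells for no effect and buffer without enzyme for full effect; nearly all actives have a fitted effect of over 40% in size; top concentration of the series not given in the record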
Target sequence (P25779 123-467 limits assumed): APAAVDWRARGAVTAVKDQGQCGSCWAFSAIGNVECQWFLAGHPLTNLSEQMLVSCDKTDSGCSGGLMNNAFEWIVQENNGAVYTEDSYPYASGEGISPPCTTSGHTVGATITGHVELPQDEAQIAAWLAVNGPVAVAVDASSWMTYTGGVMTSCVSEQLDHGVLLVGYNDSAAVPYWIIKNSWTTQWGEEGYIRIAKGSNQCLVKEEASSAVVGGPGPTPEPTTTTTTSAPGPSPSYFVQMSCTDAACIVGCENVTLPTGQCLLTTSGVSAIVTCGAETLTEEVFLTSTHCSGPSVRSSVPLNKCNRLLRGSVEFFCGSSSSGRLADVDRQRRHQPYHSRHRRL
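Detergent-containing run (0.01% Triton X-100) in acetate buffer pH 5.5 with 5 mM DTT: enzyme at 1.5 nM final, 15 min compound preincubation at room temperature, then 2 uM Z-FR-AMC substrate. Activity taken as 60 s fluorescence increase at 360/450 nm.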
Marburg entry inh: Marburg virus entry inhibition. Marburg virus pseudotyped entry inhibition, cell reporter; control for the full effect not named in the record; about a third of the inactives were read at about 46 µM. AID 540276. Potency, µM (titrated, usually from 37.8 µM), for inactives: at the highest dose activity change, negative = inhibition, usual class: inhibitors. 1.8% of 300,000 active; active = well fitted inhibition curve with a large enough effect; inconclusive = small, poorly fitted or top-dose-only effect, or effect the other way; inactive = flat fitted curve, though single readings scatter; tested in HEK293 cells; about a fifth of its hits are not listed in these tables; note: % is set by controls: 0 for no effect and ±100 for the full control effect; luciferase read-out
Cruzain noTriton: inhibitors of Trypanosoma cruzi cruzain without detergent. P25779. purified cruzain, Z-FR-AMC fluorescence, no detergent. Potency, µM, for inactives: max response, negative = inhibition, usual class: inhibitors. 2.3% of 200,000 active;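 note: plate controls were enzyme without inhibitor for no effect and buffer without enzyme for full effect; nearly all actives have a fitted effect of over 40% in size; top concentration of the series not given in the record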
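Purified cruzain at 1.5 nM, pre-incubated 15 min with compound at room temperature in 100 mM sodium acetate pH 5.5, 5 mM DTT, 0.00005% Triton X-100. Reaction started with 2 uM Z-FR-AMC; AMC fluorescence increase over 60 s gives rate.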
SARS PLpro yeast: blocks SARS-CoV papain-like protease in a yeast assay; S. cerevisiae expressing SARS-CoV PLpro, growth rescue; control for the full effect not named in the record; Potency, µM (top dose mostly 32.9 µM), without a hit: at the top dose activity, positive = growth rescue; 0.19% of 330,000 active; AID 485353; active means well fitted rising curve with a large enough effect; inconclusive means small, poorly fitted or top-dose-only effect; inactive means no such curve, though single readings can be large or run the other way; note: 0% is about no effect; nearly all actives have a fitted effect of over 55% in size; growth read by luminescence after 48 h
NS1 inh: inhibitors of influenza NS1 protein function. Potency, µM (doses to about 46.1 µM), inactives show top-dose activity, positive = more growth. AID 2326. 0.4% of 270,000 active. S. cerevisiae slowed by influenza A NS1, growth recovery by OD600; active means well fitted rising curve with a large enough effect; inconclusive means small, poorly fitted or top-dose-only effect; inactive means no such curve, though single readings can be large or run the other way; note: nearly all actives have a fitted effect of over 50% in size
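A cell-based growth assay was used: compounds that relieve NS1-induced slow growth of budding yeast raise OD600. Assay medium was yeast nitrogen base with ammonium sulphate and -URA supplement, pH 6.0, with 2% galactose.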
Active calls of the source: *; ? = inconclusive; . = not tested or not shown; & = joins results of further samples; [ ] = another dose, or the depositor's remark. Unless noted, calls come from the whole dose curve; as a rule, active = well fitted curve in the direction sought with a large enough effect; inconclusive = small, poorly fitted or top-dose-only effect, or another doubt; inactive = no such curve, though single readings can be large; an effect the other way counts as inactive or inconclusive. Potency is the fitted concentration of half-maximal effect. The order is random; about 4.5% have a hit in one of these screens.

SMILES	StopGo reporter	RE007 growth inh	LASV entry inh	Cruzain Triton	Marburg entry inh	Cruzain noTriton	SARS PLpro yeast	NS1 inh
CCOC(=O)c1cnc2c(C(F)(F)F)cccc2c1Nc1cccc(C(=O)OC)c1	-27%	.	23%[46.1 µM]	-9.8%	6%[46.1 µM]	9%	.	.
COC(=O)c1ccc(CN2C(=O)NC3(CCCc4ccccc43)C2=O)o1 (stereo not drawn)	-20%	-3%	-15%	9.1%	-2%	5%	6%	-13%
CC1CCCCN1C(=O)COC(=O)c1cc(Cl)c2c(c1)OCO2 (stereo not drawn)	20%	-5%	5%	.	28%	.	-2%	.
COc1ccc(NC(=O)c2ccc(NC(=O)c3cccs3)cc2)cc1	-11%	-4%	?	.	?	.	2%	21%
CCn1c(CNC(=O)c2ccco2)nnc1SCC(=O)Nc1cccc(F)c1	-7%	-5%	-13%	.	-1%	.	0%	-2%
Cc1ccc(-n2c(=O)cc(N3CCN(C(=O)c4ccco4)CC3)[nH]c2=O)cc1	-8%	-3%	.	-0.1%	.	9%	-4%	-32%
COc1cc(NC(=O)Cn2c(=O)n(Cc3ccccc3Cl)c(=O)c3cc(OC)c(OC)cc32)cc(OC)c1	-18%	.	-10%[46.1 µM]	-2.2%	?	-4%	.	.
CCN(CC)S(=O)(=O)c1ccc(Cl)c(C(=O)NC2CCN(Cc3ccccc3)CC2)c1	-22%	-3%	.	.	.	.	2%	0%
COc1ccc(S(=O)(=O)Nc2cc(C)cc(C)n2)c2ccccc12	.	1%	5%	3.2%	-15%	1%	4%	-25%
CC(=O)Nc1cccc(NC(=O)c2cccc(-c3ccc(O)cc3)c2)c1	2%	23%	.	.	?	.	5%	-10%
Cc1ccc(C(=O)NNC(=O)Cn2ccc(C(F)(F)F)n2)o1	-10%	-8%	-12%	.	-7%	.	13%	.
O=S(=O)(c1cccc(Br)c1)N1CCN(CCc2ccccc2)CC1	-19%	-4%	-20%[46.1 µM]	.	-1%[46.1 µM]	.	-1%	-2%
N#C/C(C(=O)NCc1ccco1)=C1/SC=C(c2ccccc2)N1c1ccccc1	-9%	4%	-5%&-15%	-4.0%	-24%&4%	-20%	7%	12%
O=C(Nc1cc2c(cc1Br)OCCO2)c1cccs1	49%[activator]	-19%	?	-2.4%	?	-4%	-10%	-52%
CCCCc1c(O)nc(SCC(=O)N2CCCCCC2)[nH]c1=O	-17%	-4%	6%[46.1 µM]	.	5%[46.1 µM]	.	2%	4%
Cc1c(C)c2ccc(OS(C)(=O)=O)c(C)c2oc1=O	-17%	-5%	-1%	-12%	?	-13%	-14%	-6%
O=c1[nH]cnc2c1ncn2[C@@H]1C[C@@H](O)[C@H](CO)O1	-11%	8%	.	.	.	.	4%	4%
CCC(=O)Nc1cc(C)c(NC(=O)c2ccco2)cn1	21%	-10%	13%	5.8%	?	5%	4%	2%
COc1cccc(CNC(=O)Cn2ccc3cc(S(=O)(=O)N4CCC(C)CC4)ccc32)c1	-15%&-6%	1%	10%[46.1 µM]	-8.1%	.	1%	11%	8%
Cc1cc(C)n(S(=O)(=O)c2cccc([N+](=O)[O-])c2)n1	0%	0%	18%	.	10%	.	6%	14%
COC(=O)Cc1c(C)c2ccc(OCc3nn[nH]n3)cc2oc1=O	-11%	4%	-8%	-7.6%	1%	13%	1%	6%
O=[N+]([O-])c1cc(C2Nc3cccc4cccc(c34)N2)ccc1Cl	?	.	8%	-6.4%	-5%	-22%	-1%	21%
CCN1CCN(c2cc(C(C)(C)C)nc3c(-c4ccccc4)c(C)nn23)CC1	-8%	21%	?	-3.6%	?	4%	-4%	5%
COc1ccc(Cl)cc1S(=O)(=O)NC(C)C(=O)NCCN1CCOCC1 (stereo not drawn)	-7%	2%	5%	.	-15%[46.1 µM]	.	.	.
O=C(Cc1ccccc1)NCCc1cn2ccsc2n1	-16%	-4%	.	-0.8%	.	7%	-11%	5%
Continuation.
SMILES	StopGo reporter	RE007 growth inh	LASV entry inh	Cruzain Triton	Marburg entry inh	Cruzain noTriton	SARS PLpro yeast	NS1 inh
CCc1ncc(CN2CCCC(C(=O)Nc3cccc(-c4ccc(F)cc4)c3)C2)cn1 (stereo not drawn)	-5%	-18%	1%	.	0%	.	-5%	-5%
CC(=O)c1cnc2nc(SCc3ccc(Cl)cc3)nn2c1C	14%	9%	-12%	.	-13%	.	-9%	-34%
NS(=O)(=O)c1ccc2nc(NC(=O)c3ccncc3)sc2c1	6%	-9%	15%[46.1 µM]	.	2%[46.1 µM]	.	-2%	.
CC(C)(C)c1ccc(NC(=O)CSc2nnc3scc(-c4ccccc4)n23)cc1	?	.	?	-8.2%	-2%[46.1 µM]	-17%	.	.
Cc1cc(-c2ccc(C(C)C)c(S(=O)(=O)Nc3cc(C)on3)c2)on1	20%	-12%	.	.	.	.	5%	-5%
CCOC(=O)C1=C(C)NC(C)=C(C(=O)OCC)C1c1ccco1	-26%	3%	.	.	.	.	0%	0%
O=c1cc(N2CCc3ccccc32)[nH]c(=O)n1Cc1ccc(F)cc1	.	-8%	4%	-1.8%	-2%	-15%	-3%	2%
CN(C(=O)CSc1nc2ccccc2c(=O)n1-c1ccccc1F)C1CCS(=O)(=O)C1 (stereo not drawn)	-3%	14%	10%[46.1 µM]	.	-15%[46.1 µM]	.	-2%	.
COc1ccccc1Nc1ncccc1[N+](=O)[O-]	15%	-4%	0%[46.1 µM]	.	10%[46.1 µM]	.	4%	8%
Cc1ccc2nc(N3CCN(C=O)CC3)nc(-c3ccccc3)c2c1	.	1%	-19%	-7.5%	-23%	?	-31%	-8%
CCCn1ccnc1SCC(=O)Nc1c(C)n(C)n(-c2ccccc2)c1=O	?	-5%	-1%	.	?	.	2%	.
CCC(C(=O)NCCC(C)C)N(C(=O)Cn1nnc(-c2ccc(C)cc2)n1)c1cccc(O)c1 (stereo not drawn)	?	.	-12%[46.1 µM]	-8.4%	?	-25%	.	.
O=C(Nc1nncs1)C1c2ccccc2Oc2ccccc21	5%	-1%	13%	-3.5%	-9%	-10%	-5%	0%
Cc1cccc(C)c1N(CC(=O)N/N=C/c1cc(Br)c(C)o1)S(C)(=O)=O	-22%	-3%	-1%	-3.9%	5%	-4%	-5%	-1%
Cc1ccc2nc(-c3cc(N)cc(N)c3)oc2c1	-29%	-7%	?	-1.5%	?	?	-8%	10%
Cc1ccc(-n2nc3c(N4CCCC(C(=O)NCCc5ccccc5)C4)nnc(C)c3c2C)cc1 (stereo not drawn)	-2%	.	-14%[46.1 µM]	-6.5%	.	8%	.	.
O=C(Nc1cc(C(F)(F)F)ccc1N1CCOCC1)c1ccccc1F	-7%	3%	5%	-0.9%	12%	8%	1%	-7%
COc1ccc(CCNC(=O)COC(=O)Cc2ccc(OC)cc2)cc1	0%	-16%	12%	0.1%	-17%	5%	-9%	1%
CC(CNC(=O)c1ccc(-c2ccccc2)cc1)CN(C)C (stereo not drawn)	-2%	16%	6%	-2.7%	?	-3%	2%	-2%
O=C(Nc1ccc2ccccc2c1)/C(=C\c1ccc2c(c1)OCO2)NC(=O)c1ccco1	-2%	4%	?	-8.5%	1%	?	1%	-10%
FC(F)(F)c1ccc(Oc2ccccc2Cl)nc1	-7%	30%	-1%	.	0%	.	1%	-1%
Cc1ccc(CN2CCN(Cc3ccc(Oc4ncccn4)cc3)CC2CCO)cc1 (stereo not drawn)	-17%	-17%	.	.	.	.	-1%	0%
CCOC(=O)c1ccccc1NC(=O)N(C(C)C)C1CCN(C(C)=O)CC1	0%	.	-3%[46.1 µM]	-5.7%	-4%[46.1 µM]	-16%	.	.
O=C(NCC[C@@H]1C[C@@H]2C=C[C@H]1C2)c1cc(COc2ccc(F)cc2F)on1	-18%	1%	.	.	.	.	-5%	-13%

Compounds shown so far containing fluorine (9):
SMILES	StopGo reporter	RE007 growth inh	LASV entry inh	Cruzain Triton	Marburg entry inh	Cruzain noTriton	SARS PLpro yeast	NS1 inh
CCOC(=O)c1cnc2c(C(F)(F)F)cccc2c1Nc1cccc(C(=O)OC)c1	-27%	.	23%[46.1 µM]	-9.8%	6%[46.1 µM]	9%	.	.
CCn1c(CNC(=O)c2ccco2)nnc1SCC(=O)Nc1cccc(F)c1	-7%	-5%	-13%	.	-1%	.	0%	-2%
Cc1ccc(C(=O)NNC(=O)Cn2ccc(C(F)(F)F)n2)o1	-10%	-8%	-12%	.	-7%	.	13%	.
CCc1ncc(CN2CCCC(C(=O)Nc3cccc(-c4ccc(F)cc4)c3)C2)cn1 (stereo not drawn)	-5%	-18%	1%	.	0%	.	-5%	-5%
O=c1cc(N2CCc3ccccc32)[nH]c(=O)n1Cc1ccc(F)cc1	.	-8%	4%	-1.8%	-2%	-15%	-3%	2%
CN(C(=O)CSc1nc2ccccc2c(=O)n1-c1ccccc1F)C1CCS(=O)(=O)C1 (stereo not drawn)	-3%	14%	10%[46.1 µM]	.	-15%[46.1 µM]	.	-2%	.
O=C(Nc1cc(C(F)(F)F)ccc1N1CCOCC1)c1ccccc1F	-7%	3%	5%	-0.9%	12%	8%	1%	-7%
FC(F)(F)c1ccc(Oc2ccccc2Cl)nc1	-7%	30%	-1%	.	0%	.	1%	-1%
O=C(NCC[C@@H]1C[C@@H]2C=C[C@H]1C2)c1cc(COc2ccc(F)cc2F)on1	-18%	1%	.	.	.	.	-5%	-13%
